Source: PubChem BioAssay (several laboratories)
MT1-MMP act inh: inhibitors of human MT1-MMP activation; GFP/RFP ratio change, % at 20 µM; 360,000 compounds, 0.061% hits; P50281; HT1080 RFP-PRO-GFP cells, GFP/RFP ratio fluorescence, overnight; percent of plate control window, DMSO zero; AID 651647;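 active = GFP/RFP ratio change of at least 30% with cell ATP level not reduced by more than half and red fluorescence within 50% of control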; also: strong numbers were not always called active
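Material – HT1080 RFP-PRO-GFP cells · Control set – DMSO wells and RFP-L50D-GFP cells · Incubation – overnight cell settling, then overnight compound exposure, 37 °C, 5% CO2 · Compound dosing – single-point 20 µM compound, 1% DMSO · Read-out – GFP/RFP fluorescence ratio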
CSC inhib: cancer stem cell inhibition | AID 2717 | cancer stem cell-like cells viability, luminescence | 300,000 compounds, 1.1% hits | inhibition, % at 7.5 µM;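 active = mean at 75% or more and at least half the replicates too; inconclusive = mean and replicates disagree; tested in HMLE shEcad cells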;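 also: 0% = median of negative and 100% = median of positive control wells; the first replicate is given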
Env fusion inh: HIV envelope-mediated fusion inhibition | HeLa-JRFL Env/CEM21 cell fusion, luciferase | inhibition, % at 12.3 µM | 360,000 compounds, 1.1% hits | AID 651610;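 active = mean replicate inhibition score of at least 50 and every replicate individually at or above 50; inconclusive = only one of the two criteria met; inactive = mean below 50 and not all replicates reaching 50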;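 also: 0% = plate neutral controls and 100% = maraviroc near 300 nM; one replicate is shown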
Rce1 inh: inhibitors of yeast Ras-converting enzyme | yeast membranes, quenched prenylated peptide cleavage fluorescence | Q03530 | 290,000 compounds, 0.27% hits | calls only;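 active = fall in fluorescence gain of 50% or more versus controls, with final raw signal at or below 3038400; inconclusive = same 50% fall but final raw signal above 3038400; inactive = fall in fluorescence gain under 50%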;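 also: plate controls were neutral control wells for no effect and wells lacking membranes for full effect; tested at 10 µM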
Target sequence (Q03530 whole entry, looked up): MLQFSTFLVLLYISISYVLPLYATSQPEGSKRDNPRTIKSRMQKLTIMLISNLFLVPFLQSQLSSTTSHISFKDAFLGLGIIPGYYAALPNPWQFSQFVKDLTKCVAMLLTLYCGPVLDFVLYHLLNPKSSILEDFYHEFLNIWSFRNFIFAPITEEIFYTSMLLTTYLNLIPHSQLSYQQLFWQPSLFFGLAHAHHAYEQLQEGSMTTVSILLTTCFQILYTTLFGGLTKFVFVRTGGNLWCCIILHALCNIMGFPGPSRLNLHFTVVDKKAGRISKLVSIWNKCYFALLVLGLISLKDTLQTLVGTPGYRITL
eIF4H FP inh: inhibitors of RNA binding by human eIF4H | 290,000 compounds, 0.94% hits | eIF4H fluorescence polarization binding assay | inhibition, % at 35 µM;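 active = 50% or more with normal probe brightness, or confirmed in later tests; inconclusive = above 50% with abnormal brightness, or retests that disagree; inactive = below 50% or failed in later tests; about a fifth of its hits are not listed in these tables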;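 also: calls also rest on retests at 20 µM and on dose response follow-up; 0% = protein and probe with vehicle and 100% = probe without protein; strong numbers were not always called active; many hits fall short of the cut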
PABP polyA inh: blocks human PABP binding to poly(A) RNA; fluorescence polarization; AID 2014; inhibition, % at 35 µM; P11940; 290,000 compounds, 1% hits;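 active = 50% or more with normal probe brightness, or confirmed in later tests; inconclusive = above 50% with abnormal brightness, or retests that disagree; inactive = below 50% or failed in later tests; about a fifth of its hits are not listed in these tables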;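 also: calls also rest on retests at 20 µM and on dose response follow-up; controls were probe without protein and protein plus probe with vehicle; some compounds called inactive have numbers as strong as hits; many hits fall short of the cut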
Target sequence (P11940 whole entry, looked up): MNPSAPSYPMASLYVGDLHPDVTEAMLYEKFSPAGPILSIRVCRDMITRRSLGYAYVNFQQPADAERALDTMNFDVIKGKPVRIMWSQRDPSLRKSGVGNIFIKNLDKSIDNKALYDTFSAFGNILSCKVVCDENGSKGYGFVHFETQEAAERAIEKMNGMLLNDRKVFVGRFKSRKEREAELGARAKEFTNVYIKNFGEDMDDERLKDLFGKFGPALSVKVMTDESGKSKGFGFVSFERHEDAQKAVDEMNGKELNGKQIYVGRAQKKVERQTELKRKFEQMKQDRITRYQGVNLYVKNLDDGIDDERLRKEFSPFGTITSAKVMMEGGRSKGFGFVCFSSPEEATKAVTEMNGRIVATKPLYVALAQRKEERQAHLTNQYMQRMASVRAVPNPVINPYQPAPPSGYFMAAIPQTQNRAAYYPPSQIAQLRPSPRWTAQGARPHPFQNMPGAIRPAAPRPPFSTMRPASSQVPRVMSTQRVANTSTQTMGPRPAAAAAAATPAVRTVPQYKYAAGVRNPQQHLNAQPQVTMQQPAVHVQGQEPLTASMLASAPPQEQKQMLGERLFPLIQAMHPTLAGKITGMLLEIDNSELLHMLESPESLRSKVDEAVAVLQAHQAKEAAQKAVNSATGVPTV
Yeast UUG start: alters start codon recognition fidelity in yeast | S. cerevisiae UUG-firefly luciferase reporter, luminescence/redox ratio | activity score, % at 18.7 µM | 350,000 compounds, 0.13% hits | AID 602363;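 active = replicate mean at a twofold rise or more, about +100% in these data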;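 also: firefly luciferase made from a UUG start codon reports start codon fidelity; reporter light over untreated wells divided by growth signal over untreated wells; some hits fall short of that in this replicate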
eIF4H FP inh retest: recorded beside eIF4H FP inh, whose call it bears; inhibition, %; compound at 20 µM; confirmation average;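 mean of two retest wells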
PABP polyA inh retest: further read-out of PABP polyA inh, marked with its call; inhibition, %; compound at 20 µM; confirmation repeats;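 mean of two retest wells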
MT1-MMP act inh RFP: recorded beside MT1-MMP act inh, whose call it bears; RFP signal change, %; measured here: RFP expression control read;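 0 = vehicle wells; hits needed this value within 50% of zero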
An asterisk follows results filed as active; i = inactive; ? = inconclusive; . = not tested or not shown. Not all compounds are listed, so the mix of outcomes need not match the whole.

The first 20 records, to show the layout:
SMILES	MT1-MMP act inh	MT1-MMP act inh RFP	CSC inhib	Env fusion inh	Rce1 inh	eIF4H FP inh	PABP polyA inh	Yeast UUG start	others
CC(=O)c1ccc(NC(=O)C(C)OC(=O)c2ccc(NS(=O)(=O)c3ccc(F)c(F)c3)cc2)cc1 (centres undefined)	1	-1	5	-5	i	-4	7	.
CC1CCCCN1C(=O)c1ccc(CS(=O)(=O)Cc2ccccc2)cc1 (centres undefined)	1	-6	-10	.	i	2	6	7
O=C(NCc1ccc(F)cc1)C1CC(=O)N(C2CCCCCCC2)C1 (centres undefined)	-1	0	-2	-1	i	.	.	10
CCN1CCN(Cc2c(O)ccc3c(C)cc(=O)oc23)CC1	1	4	-6	-19	?	2	5	1
CC(OC(=O)CN1C(=O)c2ccccc2C1=O)C(=O)NC1CCCCC1C (centres undefined)	5	4	-4	-7	.	.	.	-19
N=c1n(CCO)c2ccccc2n1Cc1ccc(Cl)cc1	-2	0	0	.	i	-14	-3	-14
C=CCN(c1ccc(C(=O)Nc2cccc(C)c2)cc1)S(C)(=O)=O	1	-3	-1	31	i	-7	17	.
Nc1ccccc1Nc1cc(-c2ccccc2)[nH]n1	-17	-8	.	10	i	-7	-7	-35
Cc1ccc2nc(Nc3nc(CSc4nc5ccccc5s4)cc(=O)[nH]3)nc(C)c2c1	1	-5	2	.	i	1	18	-6
CCCCNCc1cc(Br)c(OCC(=O)N2CCOCC2)c(OC)c1	-2	2	1	0	i	0	-2	-3
CCNc1nc(NCC)nc(N/N=C/c2ccccc2)n1	3	5	-10	-20	i	-3	-8	-18
Cc1cc(Oc2nc3c(C)cccn3c(=O)c2/C=C(\C#N)S(=O)(=O)c2ccccc2)ccc1Cl	-23	-14	-7	-9	i	35	3	.
Cc1c(-n2c(SCC(=O)N(C)C3CCS(=O)(=O)C3)nc3ccccc3c2=O)c(=O)n(-c2ccccc2)n1C (centres undefined)	2	5	-24	-6	i	2	35	-8
CC1CCCN(S(=O)(=O)c2cc3c4c(c2)CCN4C(=O)CC3)C1 (centres undefined)	2	4	13	-22	i	.	.	-19
CCc1ccc(S(=O)(=O)NC2CC(C)(C)NC(C)(C)C2)cc1	-2	3	-3	0	.	5	2	-15
COC(=O)c1ccc(NC(=S)NCCCn2ccnc2)cc1	0	2	-15	11	i	-1	-14	-10
C[C@@H](NC(=O)c1ncn(C)c1C(=O)N[C@H](C)c1ccccc1)c1ccccc1	3	-3	-4	10	.	.	.	4
Cc1ccc(S(=O)(=O)NCC(=O)OC(C(=O)c2ccccc2)c2ccccc2)cc1 (centres undefined)	-2	1	-6	-108	i	-3	2	0
Cc1nnc(NCc2cccc(Cl)c2)c2ccccc12	-2	-2	7	12	i	4	2	-1
O=C(NCC1CCCCC1)c1cc(-c2cc(F)ccc2OCC2CCCO2)n[nH]1 (centres undefined)	-3	-8	.	26	.	.	.	-15

The whole of this part, repeating the preview:
SMILES	MT1-MMP act inh	MT1-MMP act inh RFP	CSC inhib	Env fusion inh	Rce1 inh	eIF4H FP inh	PABP polyA inh	Yeast UUG start	others
CC(=O)c1ccc(NC(=O)C(C)OC(=O)c2ccc(NS(=O)(=O)c3ccc(F)c(F)c3)cc2)cc1 (centres undefined)	1	-1	5	-5	i	-4	7	.
CC1CCCCN1C(=O)c1ccc(CS(=O)(=O)Cc2ccccc2)cc1 (centres undefined)	1	-6	-10	.	i	2	6	7
O=C(NCc1ccc(F)cc1)C1CC(=O)N(C2CCCCCCC2)C1 (centres undefined)	-1	0	-2	-1	i	.	.	10
CCN1CCN(Cc2c(O)ccc3c(C)cc(=O)oc23)CC1	1	4	-6	-19	?	2	5	1
CC(OC(=O)CN1C(=O)c2ccccc2C1=O)C(=O)NC1CCCCC1C (centres undefined)	5	4	-4	-7	.	.	.	-19
N=c1n(CCO)c2ccccc2n1Cc1ccc(Cl)cc1	-2	0	0	.	i	-14	-3	-14
C=CCN(c1ccc(C(=O)Nc2cccc(C)c2)cc1)S(C)(=O)=O	1	-3	-1	31	i	-7	17	.
Nc1ccccc1Nc1cc(-c2ccccc2)[nH]n1	-17	-8	.	10	i	-7	-7	-35
Cc1ccc2nc(Nc3nc(CSc4nc5ccccc5s4)cc(=O)[nH]3)nc(C)c2c1	1	-5	2	.	i	1	18	-6
CCCCNCc1cc(Br)c(OCC(=O)N2CCOCC2)c(OC)c1	-2	2	1	0	i	0	-2	-3
CCNc1nc(NCC)nc(N/N=C/c2ccccc2)n1	3	5	-10	-20	i	-3	-8	-18
Cc1cc(Oc2nc3c(C)cccn3c(=O)c2/C=C(\C#N)S(=O)(=O)c2ccccc2)ccc1Cl	-23	-14	-7	-9	i	35	3	.
Cc1c(-n2c(SCC(=O)N(C)C3CCS(=O)(=O)C3)nc3ccccc3c2=O)c(=O)n(-c2ccccc2)n1C (centres undefined)	2	5	-24	-6	i	2	35	-8
CC1CCCN(S(=O)(=O)c2cc3c4c(c2)CCN4C(=O)CC3)C1 (centres undefined)	2	4	13	-22	i	.	.	-19
CCc1ccc(S(=O)(=O)NC2CC(C)(C)NC(C)(C)C2)cc1	-2	3	-3	0	.	5	2	-15
COC(=O)c1ccc(NC(=S)NCCCn2ccnc2)cc1	0	2	-15	11	i	-1	-14	-10
C[C@@H](NC(=O)c1ncn(C)c1C(=O)N[C@H](C)c1ccccc1)c1ccccc1	3	-3	-4	10	.	.	.	4
Cc1ccc(S(=O)(=O)NCC(=O)OC(C(=O)c2ccccc2)c2ccccc2)cc1 (centres undefined)	-2	1	-6	-108	i	-3	2	0
Cc1nnc(NCc2cccc(Cl)c2)c2ccccc12	-2	-2	7	12	i	4	2	-1
O=C(NCC1CCCCC1)c1cc(-c2cc(F)ccc2OCC2CCCO2)n[nH]1 (centres undefined)	-3	-8	.	26	.	.	.	-15
CC(=O)Nc1sc2c(c1CN1CCCC1)CCCC2	-2	0	-7	12	i	-2	-6	-8
CC(=O)NCCC(=O)Nc1nc(C)c(Cc2ccc3c(c2)OCO3)s1	-3	-2	-28	-8	i	-9	-5	.
CC(=O)c1ccc(OCC(O)CN2CC(C)OC(C)C2)cc1 (centres undefined)	3	8	-7	.	i	8	14	-8
CCCCCCCC(=O)N/N=C/c1ccc([N+](=O)[O-])o1	2	-1	7	-3	i	12	2	.
O=C(O)/C=C\C(=O)Nc1ccccc1C(=O)NCc1ccccc1	-13	-9	2	.	i	-11	0	-1
Cc1cc(C(C)(C)C)cc(S(=O)(=O)Nc2ccc(O)c(C(=O)O)c2)c1C	3	0	-2	-2	i	2	16	.
CC(C)Cn1c(SCC(=O)NC2CCCc3ccccc32)nc(O)cc1=O (centres undefined)	-20	-3	-9	-25	i	-11	10	-4
CCOC(=O)c1cnc2c(C(F)(F)F)cccc2c1N1CCN(C)CC1	-2	-1	7	14	i	-7	-2	.
Cc1ccccc1NC(=O)CC1SC(=Nc2ccc(O)cc2)NC1=O (centres undefined)	-2	-6	3	-3	i	-1	0	-29
COc1ccc(NC(=O)N2CCCC(C(=O)NC(C)C)C2)cc1 (centres undefined)	-4	0	-17	-11	i	-1	10	-15
COc1ccccc1N(CC(=O)Nc1cc(C)on1)S(=O)(=O)c1ccc(Cl)cc1	-2	-5	-5	.	i	1	5	-11
O=C(NNC(=O)c1ccccc1[N+](=O)[O-])Nc1ccc(Cl)cc1	-3	-2	.	-6	i	-2	-2	.
CCc1ccc(/C=C2\SC(=S)N(CCCC(=O)NC3=NCCS3)C2=O)cc1	-1	-1	.	59*	.	.	.	-73
COCCN(C(=O)COC(=O)COc1ccc2c(c1)CCC2)c1c(N)n(Cc2ccccc2)c(=O)[nH]c1=O	0	2	-16	2	i	.	.	.
CCC1CCCCN1C(=O)COC(=O)CSc1ccc(C(N)=O)cc1[N+](=O)[O-] (centres undefined)	0	0	.	-8	.	.	.	-13
CN1CC[C@]2(CCN3CCc4c(oc5ccccc45)[C@@H]3C2)N(C)C1=O	2	-9	-4	32	.	.	.	0
Cc1c(C(=O)NCc2ccccc2)sc(=O)n1Cc1ccccc1F	0	-3	.	13	.	.	.	-20
CCN(CC)S(=O)(=O)c1ccc(Cl)c(NC(=S)NC(=O)C2CCCC2)c1	0	-32	8	?	.	.	.	-15
CCn1c(SCC(=O)c2c(N)n(C)c(=O)n(C)c2=O)nnc1-c1ccccc1	.	.	-20	.	i	8	4	.
CCCCc1nc2ccccc2c(=O)n1NC(=O)c1c(O)c2ccccc2n(C)c1=O	-15	-19	15	34	i	12	3	.
O=C1CN(c2ccccc2)C(=S)N1C(=O)c1ccccc1	5	7	-3	-76	i	2	9	-24
COc1cccc(CNC(=O)COc2cc3c(c4oc(=O)cc(C)c24)CCC(C)(C)O3)c1	8	-9	4	.	i	4	8	1
O=C(NCC(c1cccnc1)N1CCN(c2ccccc2F)CC1)c1ccccc1 (centres undefined)	5	-3	11	20	i	-11	-2	-16
COC(=O)c1ccc2c(c1)NC(=O)CS2	-1	4	-8	-8	i	16	3	-6
Cc1ccc(-c2nnc(NCCCO)c3ccccc23)cc1	-1	-2	4	11	i	3	-5	-15
COc1cccc(C(=O)Nc2nnc(S(=O)(=O)N3CCCC3)s2)c1	-1	0	-3	-11	i	-6	25	-8
CN1CCC2(CC1)N=C(c1ccc(F)cc1)C(=S)N2C(=O)c1ccc(C(C)(C)C)cc1	5	6	37	-9	i	-6	2	-1
O=C(CCS(=O)(=O)c1ccc(Br)cc1)N1CCCCCC1	4	4	-26	-7	i	94*	27	-24	eIF4H FP inh retest=91*;PABP polyA inh retest=49
O=C(CCNC(=O)C1CCN(S(=O)(=O)c2ccc(F)cc2)CC1)NCc1cccnc1	-2	-1	-23	9	i	-8	-5	-17
O=S(=O)(Nc1cccc2c1CCCC2)c1ccc(Cl)cc1	-6	-7	31	15	i	-2	3	-3
O=C(Nc1nnc(S(=O)(=O)N2CCOCC2)s1)c1ccccc1F	-2	3	0	0	i	-13	-6	-22
CCOc1ccc(N=C2NN=C(c3cc(C)n(CC4CCCO4)c3C)CS2)cc1 (centres undefined)	-3	2	.	-16	i	7	-12	.
